CtBP-E1A blk: qHTS Assay for Inhibitors of the CtBP/E1A Interaction | CtBP / adenovirus E1A interaction (AlphaScreen) | AlphaScreen GST-E1A/His-CtBP binding, 1536-well; hits give low values; control for the full effect not named in the record | activity change, % (test concentration not listed) | actives 0.49% (n = 340,000); in the data active means activity change below about -65%; inconclusive means about -30% to -65%; inactive means above about -30%; note: % is set by controls: 0 for no effect and ±100 for the full control effect; compound concentration not given in the record
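AlphaScreen with 125 nM GST-E1A and 125 nM His-CtBP (5X stocks) in Tris pH 8.0, 300 mM NaCl, BSA, Tween 20, TCEP. Compounds preincubated 2 h at 37 deg C, then glutathione donor/nickel acceptor beads added for 1 h at 37 deg C in dark.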
Sfp inh: qHTS Assay for Inhibitors of Bacillus subtilis Sfp phosphopantetheinyl transferase (PPTase) | 4'-phosphopantetheinyl transferase ffp (Bacillus subtilis), Q9F4F7 | Biochemical Sfp PPTase activity, qHTS | Potency, µM, inactives show max response, negative = inhibition, usual class: inhibitors | actives 3.5% (n = 310,000) | AID 1490, 2009; active = well fitted inhibition curve with a large enough effect; inconclusive = small, poorly fitted or top-dose-only effect, or another doubt; inactive = no such curve, though single readings can be large or run the other way;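 note: the enzyme is Sfp with the accession as filed and its product quenches rhodamine fluorescence; potency is the fitted concentration of half-maximal effect; 0% = enzyme reaction without inhibitor and -100% = no enzyme wells; top concentration of the series not given in the record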
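Buffer: 50 mM Hepes-Na pH 7.6, 10 mM MgCl2, 0.01% Nonidet P-40, 0.01% BSA. Enzyme 15 nM, pre-exposed to compound 15 min; substrates then added and fluorescence change tracked over 30 min.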
D2 PAM: Beta-Arrestin HTS for Positive Allosteric Modulators of the Human D2 Dopamine Receptor: Potentiators. DiscoveRx D2 beta-arrestin cells, luminescence, 90 min; 100% = 57 uM dopamine signal. D(2) dopamine receptor (Homo sapiens), P14416. potentiation, % (no concentration beside the values). actives 0.23% (n = 360,000); active = potentiation of 50% or more; inconclusive = 30% to 50%; inactive = 30% or less;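 note: compound concentration not given in the record; tested on top of an EC20 dose of dopamine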
Target sequence (P14416 whole entry, looked up): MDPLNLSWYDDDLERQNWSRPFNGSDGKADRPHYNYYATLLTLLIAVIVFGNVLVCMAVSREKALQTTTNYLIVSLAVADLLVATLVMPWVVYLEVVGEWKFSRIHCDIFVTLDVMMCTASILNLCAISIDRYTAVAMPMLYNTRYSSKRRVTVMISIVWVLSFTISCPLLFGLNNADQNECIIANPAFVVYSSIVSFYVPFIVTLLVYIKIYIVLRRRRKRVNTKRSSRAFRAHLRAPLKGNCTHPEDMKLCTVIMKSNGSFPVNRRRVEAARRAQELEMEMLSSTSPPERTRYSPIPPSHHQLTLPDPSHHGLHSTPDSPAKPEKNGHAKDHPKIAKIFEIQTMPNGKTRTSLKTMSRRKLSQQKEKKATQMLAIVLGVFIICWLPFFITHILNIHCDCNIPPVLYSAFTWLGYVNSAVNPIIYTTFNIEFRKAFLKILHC
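PathHunter beta-arrestin assay in DiscoveRx D2 cells. Compounds were added with an EC20 of dopamine (50 nM final) for 90 min at 37 deg C. Luminescence was read 1 h after detection reagent, with 57 uM dopamine as the EC100 control.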
D2 agonist: Beta-Arrestin HTS for Positive Allosteric Modulators of the Human D2 Dopamine Receptor: Agonists. actives 0.084% (n = 360,000). DiscoveRx PathHunter D2 beta-arrestin, luminescence, 90 min; 100% = 57 uM dopamine signal. activation, % (no concentration beside the values). D(2) dopamine receptor (Homo sapiens), P14416. AID 624465, 2012; in the data active = activation above about 40%; inconclusive = about 15% to 40%; inactive = below about 15%; note: compound concentration not given in the record; the text of the record calls up to 30% inactive
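Agonist mode: compounds alone added to overnight-plated D2 PathHunter cells for 90 min at 37 C, with 57 uM final dopamine (EC100) defining full response. Beta-arrestin recruitment detected by chemiluminescent reagent, read after 1 h at ambient temperature.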
PINK1 expr mod: A Quantitative High throughput Screen to Identify Chemical Modulators of PINK1 Expression; PINK1 immunofluorescence, high-content cytometry, 24 h; Potency, µM (series often up to 76.6 µM), inactives show at the top dose activation (PINK1 increase), usual class: activators; actives 0.2% (n = 410,000); AID 624263, 2012; active = well fitted activation curve with a large enough effect; inconclusive = small, poorly fitted or top-dose-only effect; inactive = flat fitted curve, though single readings scatter; cell line not stated here;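 note: potency is the fitted concentration of half-maximal effect; % of control where 0% means no effect; nearly all actives have a fitted effect of over 65% in size; a mitochondrial uncoupler was the plate control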
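Cells are seeded, rested 12 hours, then given compound at five concentrations or DMSO for 24 hours. After fixation, blocking and antibody staining, PINK1 amount and mitochondrial localization are scored; CCCP serves as control.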
Six1-Eya2 inh: qHTS Assay for Inhibitors of the Six1/Eya2 Interaction. actives 0.56% (n = 360,000). AID 651725, 2012. AlphaScreen GST-Six1/His-Eya2 binding, biochemical; hits give low values; control for the full effect not named in the record. activity change, % (concentration not given with the values); in the data active = activity change below about -65%; inconclusive = about -30% to -65%; inactive = above about -30%; note: % is set by controls: 0 for no effect and ±100 for the full control effect
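Compounds are tested against tagged Six1 and Eya2 proteins bridged by glutathione donor and nickel acceptor beads; after a one-hour incubation at 37 °C without light, AlphaScreen emission is recorded.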
TRPV1 PAM: HTS Assay for Compounds that Act as Potentiators of the Vanilloid Receptor 1 | potentiation, % at 8.33 µM | actives 0.02% (n = 320,000) | TRPV1-expressing cells, Fluo-8 calcium influx, capsaicin EC20 potentiation; host cell line not named in the record; control for the full effect not named in the record; active means potentiation above 80%; inconclusive means 30% to 80%; inactive means below 30%; note: 0% is about no effect
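Cells expressing TRPV1 were dye-loaded with Fluo-8 and read kinetically: 10 s baseline, 3 min after compound (agonist portion), then 2 min after EC20 capsaicin (allosteric enhancer portion). Calcium-bound dye fluorescence at 480/520 nm.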
Active calls of the source: *; ? = inconclusive; . = not tested or not shown; [ ] = another dose, or the depositor's remark.

item	mol	TRPV1 PAM	Six1-Eya2 inh	D2 agonist	CtBP-E1A blk	Sfp inh	PINK1 expr mod	D2 PAM
1	CC(C)(C)/C(Cn1cncn1)=N\OC(=O)Nc1ccc(Cl)cc1	-5	-2	0.6	1	7%	2.3%	-8
2	CCCCC(=O)Nc1ccc(NC(=O)c2ccc([N+](=O)[O-])cc2)cc1OC	-5	1	1.5	5	3%	18%	19
3	C=CCc1cccc(CNn2cnnc2)c1O	9	2	-0.7	-2	-2%	2.7%	-5
4	CC1CCN(C(=O)c2cc(Cl)nc3ccccc23)CC1	-4	5	-5.2	-3	9%	0.0%	-9
5	COC(=O)c1c(C)oc(C)c(C(=O)OC)c1=O	0	7	-0.4	-9	0%	-1.0%	2
6	O=C(NCC(c1ccco1)N1CCCC1)c1sc2ccccc2c1Cl (stereo not given)	2	-12	2.8	.	12%	0.7%	-19
7	C[C@H](CO)N1C[C@H](C)[C@@H](CN(C)C(=O)Nc2ccccc2)Oc2ccc(NC(=O)CCC(F)(F)F)cc2C1=O	.	-2	0.3	-7	.	0.1%	-3
8	Cc1ccc(C(=O)c2c[nH]c(C(=O)NCc3cccnc3)c2)cc1	2	1	4.5	-6	-6%	1.1%	11
9	C=CCNc1nc(N)c([N+](=O)[O-])c(N2CCCCCC2)n1	-1	-10	0.0	-4	6%	-0.7%	-5
10	COc1cccc(-c2cnc3c(NC(C)=O)cc(-c4cccc(C(=O)NCCN(C)C)c4)cn23)c1	.	-13	7.1	-9	.	3.7%	-4
11	C/C(=N\NC(=O)c1cccc(N2CCCC2=O)c1)c1ccc(N)cc1	7	1	-2.3	13	12%	2.1%	5
12	Cc1cc(C(F)(F)F)n2[nH]c(=O)c(N=Nc3ccccc3)c2n1	7	-4	-0.1	0	-13%	-2.1%	-4
13	Cc1ccc(-c2csc(NC(=O)c3cccc([N+](=O)[O-])c3)n2)cc1	.	-6	-1.4	2	9%	5.6%	-5
14	CCn1c(SCC(=O)Nc2cccc(NC(C)=O)c2)nnc1C(C)C	-21	2	-0.6	5	16%	-1.2%	0
15	C/C(=N\NC(=O)c1ccccc1C)c1cccnc1	6	-8	-2.6	.	7%	0.5%	-7
16	CCC(C)(C(=O)NC1CCCC1)N(C(=O)c1cnccn1)c1c(C)n(C)n(-c2ccccc2)c1=O (stereo not given)	-6	4	-2.3	3	4%	5.5%[38.3 µM]	2
17	COc1cc(C(=O)NCc2ccc(C)cc2)ccc1OCc1c(C)noc1C	-8	0	-3.2	-5	0%	-2.2%	-34
18	COc1ccc(OCC(O)CNC(=O)Nc2cccc3ccccc23)cc1 (stereo not given)	6	0	2.9	-3	7%	-1.2%	-3
19	COC(=O)c1ccc(CNC(=O)C2CCC(=O)N(C3CCCCCC3)C2)cc1 (stereo not given)	6	9	2.4	5	9%	1.2%	-9
20	COc1ccc(NC(=O)CN2C(=O)NC(CC(C)C)C2=O)cc1S(=O)(=O)N1CCOCC1 (stereo not given)	-5	16	-5.8	15	.	2.4%	-2

2 entries from above in a different format.
(5) COC(=O)c1c(C)oc(C)c(C(=O)OC)c1=O
(17) COc1cc(C(=O)NCc2ccc(C)cc2)ccc1OCc1c(C)noc1C

compound no.,5,17
TRPV1 PAM,0,-8
Six1-Eya2 inh,7,0
D2 agonist,-0.4,-3.2
CtBP-E1A blk,-9,-5
Sfp inh,0%,0%
PINK1 expr mod,-1.0%,-2.2%
D2 PAM,2,-34

Laid out differently: entries from further up.
12	Cc1cc(C(F)(F)F)n2[nH]c(=O)c(N=Nc3ccccc3)c2n1
  TRPV1 PAM: 7
  Six1-Eya2 inh: -4
  D2 agonist: -0.1
  CtBP-E1A blk: 0
  Sfp inh: -13%
  PINK1 expr mod: -2.1%
  D2 PAM: -4
13	Cc1ccc(-c2csc(NC(=O)c3cccc([N+](=O)[O-])c3)n2)cc1
  TRPV1 PAM: .
  Six1-Eya2 inh: -6
  D2 agonist: -1.4
  CtBP-E1A blk: 2
  Sfp inh: 9%
  PINK1 expr mod: 5.6%
  D2 PAM: -5
14	CCn1c(SCC(=O)Nc2cccc(NC(C)=O)c2)nnc1C(C)C
  TRPV1 PAM: -21
  Six1-Eya2 inh: 2
  D2 agonist: -0.6
  CtBP-E1A blk: 5
  Sfp inh: 16%
  PINK1 expr mod: -1.2%
  D2 PAM: 0
15	C/C(=N\NC(=O)c1ccccc1C)c1cccnc1
  TRPV1 PAM: 6
  Six1-Eya2 inh: -8
  D2 agonist: -2.6
  CtBP-E1A blk: .
  Sfp inh: 7%
  PINK1 expr mod: 0.5%
  D2 PAM: -7

(cont.)
item	mol	TRPV1 PAM	Six1-Eya2 inh	D2 agonist	CtBP-E1A blk	Sfp inh	PINK1 expr mod	D2 PAM
21	CC1=Cc2ccccc2C(C#N)N1C(=O)c1ccccc1 (stereo not given)	-9	1	1.6	0	-23%	1.7%	-2
22	CC(=O)NC(C)c1nc2ccccc2n1CC(=O)N1C(C)CCCC1C (stereo not given)	-14	-5	-3.7	-10	16%	2.5%	-4
23	O=C(c1ccc2c3c(cccc13)C(=O)N(O)C2=O)N1CCCCC1	-7	5	0.8	7	5%	5.6%	-20
24	COc1cc(-c2cccc([C@H]3[C@@H]4C=CC[C@@H](C)[C@@H]4C(=O)N3Cc3ccccc3)c2)cc(OC)c1OC	.	-12	1.0	-22	?	12%	.
25	CC1=C(C(=O)N(C)C)CC(CC(=O)NCCCCc2ccccc2)C(=O)N1Cc1ccc(F)cc1 (stereo not given)	.	0	4.2	1	.	0.1%	.
26	O=c1c2ccccc2nc(SCc2cccc(F)c2)n1-c1cccc(S(=O)(=O)N2CCCC2)c1	12	-9	-5.8	-6	12%	4.0%	-11
27	Cc1cc(C)nc(SCc2c(F)cccc2Cl)n1	11	14	3.3	18	-2%	5.2%	-8
28	CN(C)/C=C(\C(=O)c1ccccc1)c1nnnn1-c1ccccc1	-3	-17	-4.3	-3	21%	1.3%	-2
29	Cc1ccc(NC(=S)N2CCC(c3nc4ccccc4s3)CC2)cc1	16	-16	-0.2	-9	15%	4.0%[38.3 µM]	-21
30	Cc1cc(C(=O)CSc2nc3ccccc3c(=O)[nH]2)c(C)n1C	13	-26	-1.2	-28	-28%	-0.7%	-8
31	O=C(c1ccco1)N1CCN(C(c2ccccc2F)c2nnnn2Cc2cccs2)CC1 (stereo not given)	2	-5	-1.6	-4	-5%	0.1%	-20
32	Cc1ccc(Nc2nnc(C3C(=O)N(C)C4(C)CC3c3cc(Br)ccc3O4)s2)cc1 (stereo not given)	6	-14	-6.6	-3	12%	16%	-10
33	Cc1cccc(C(=O)Nc2ccc(C(=O)/C=C/c3cccnc3)cc2)c1	-13	10	-2.4	3	-22%	-0.9%	-22
34	Cc1[nH]c2ccccc2c1C(=O)CN1CC(C)CC(C)C1 (stereo not given)	-1	0	-0.6	5	-2%	1.4%	-10
35	CCNC(=O)CCCOc1ccc(Cl)cc1Cl	-11	6	2.1	8	9%	13%[38.3 µM]	-4
36	CCCCNC1=CC(=O)C(NCCCC)=CC1=O	.	-6	?	-8	.	-0.7%	0
37	COc1cccc(/C=C2/SC(=S)N(CC(=O)NC3C=CS(=O)(=O)C3)C2=O)c1 (stereo not given)	-8	-4	-7.4	-15	?	0.6%	-3
38	CCOC(=O)N1CCN(S(=O)(=O)c2ccc(-n3cnnn3)cc2)CC1	-17	0	-1.3	2	6%	1.0%	-10
39	CCOc1cc2c3c(c1)C(C)=CC(C)(C)N3C(=O)C2=O	8	-12	-4.6	-1	14%	1.6%	-6
40	CCCC(=O)N1CCC1(C)C(=O)Nc1ccc(OC)c(OC)c1 (stereo not given)	.	2	-2.9	5	.	-0.4%	-9
41	O=C(c1ccc(NS(=O)(=O)c2ccc3[nH]c(=O)[nH]c3c2)cc1)N1CCCC(C(F)(F)F)C1 (stereo not given)	-2	-6	-5.6	5	.	-1.1%	8
42	CCN1CCN(c2nc3c(c(=O)[nH]c(=O)n3C)n2Cc2ccccc2F)CC1	-9	3	-2.3	-12	12%	0.5%	-4
43	CCSc1ccccc1C(=O)Nc1ccc([N+](=O)[O-])cc1OC	0	-24	-5.2	-28	?	0.7%	-4
44	COc1ccccc1CN(C)C(C)C(=O)Nc1cccc(C(C)=O)c1 (stereo not given)	-11	9	-5.1	1	20%	0.9%	-41
45	O=C(Nc1ccn(Cc2ccccc2F)n1)c1ccc(COc2ccc(Cl)cc2Cl)o1	6	-3	-3.2	4	?	3.6%	27
46	Cc1ccc(S(=O)(=O)N2CCC(C(=O)Nc3nnc(-c4ccco4)s3)CC2)cc1	21	0	-1.5	-7	0%	8.0%[38.3 µM]	2
47	Cc1ccc(C)c(S(=O)(=O)N2CCCC2CNC(=O)C(=O)NCCN2CCOCC2)c1 (stereo not given)	-24	2	-0.6	6	.	-1.0%	-5
48	Cc1cc(C)cc(N2C(=O)C3C4C=CC(C4)C3C2=O)c1 (stereo not given)	1	1	-0.4	5	8%	0.1%	12
49	O=C(c1cc2nc(-c3ccco3)cc(C(F)(F)F)n2n1)N1CCN(c2ccccc2)CC1	-13	-8	-1.0	10	-15%	.	5
50	N#Cc1ccsc1NC(=O)COC(=O)C1=NNC(=O)CC1	4	-25	-1.6	-24	.	-0.6%	-4

Source: PubChem (National Center for Advancing Translational Sciences (NCATS))

Compounds were not picked by outcome; 3.7% or so of the library scored in one or more.
